Bioassay records: PubChem, Broad Institute
MLL AF4-AF9 inh – blocks AF4 peptide binding to human AF9; inhibition, % at 10 µM; AID 651704; AlphaScreen, biotin-AF4 peptide binding to FLAG-AF9; 350,000 tested, 0.47% active; P42568;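 active = every replicate reaching a set inhibition limit, whatever the replicate mean, cut at about 25% in these data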;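 note: 0% = plate neutral control median and 100% = total signal loss; the record names both 10 and 1 µM as test concentration; the first replicate is given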
Target sequence (P42568 whole entry, looked up): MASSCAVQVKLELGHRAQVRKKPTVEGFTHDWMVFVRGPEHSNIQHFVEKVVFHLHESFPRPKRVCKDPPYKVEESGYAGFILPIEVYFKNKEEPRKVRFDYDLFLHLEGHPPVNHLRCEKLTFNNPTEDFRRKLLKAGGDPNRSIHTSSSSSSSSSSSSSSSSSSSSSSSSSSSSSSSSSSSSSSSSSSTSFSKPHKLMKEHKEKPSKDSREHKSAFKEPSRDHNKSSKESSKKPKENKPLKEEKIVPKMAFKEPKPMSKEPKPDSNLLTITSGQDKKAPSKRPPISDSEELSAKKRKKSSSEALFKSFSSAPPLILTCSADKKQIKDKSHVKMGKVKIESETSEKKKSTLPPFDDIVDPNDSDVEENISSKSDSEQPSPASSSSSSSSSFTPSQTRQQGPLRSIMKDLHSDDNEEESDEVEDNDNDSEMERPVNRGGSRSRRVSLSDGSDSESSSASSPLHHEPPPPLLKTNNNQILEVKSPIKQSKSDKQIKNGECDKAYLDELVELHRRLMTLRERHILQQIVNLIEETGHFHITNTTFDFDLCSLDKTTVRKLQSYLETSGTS
rRNA inh HTS – inhibitors of bacterial rRNA selective over humanized ribosomes | AID 720706 | GFP signal change (wild-type ribosome), % (test concentration not listed) | E. coli WT GFP vs humanized-ribosome RFP mutants, fluorescence, 24 h; hits give low values; DMSO median 0, no signal -100 | 350,000 tested, 1.6% active;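 active = significant combined selectivity score with lowered wild-type GFP, culture density cut under 30%, mutant RFP and density less affected; inactive = any of these conditions unmet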; note: one replicate is shown; some compounds called inactive have numbers as strong as hits
rRNA inh HTS OD600 – recorded beside rRNA inh HTS, whose call it bears; OD600 change, %; measured here: OD600 growth;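 optical density of the mix in the first replicate; 0 = DMSO median and -100 = no signal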
rRNA inh HTS RFP – recorded beside rRNA inh HTS, whose call it bears; RFP signal change, %; measured here: RFP humanized mutant strains;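 first replicate; 0 = DMSO median and -100 = no signal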
An asterisk follows results filed as active. The list is partial; the hit share may differ from the screen's.

Every second line gives: rRNA inh HTS	MLL AF4-AF9 inh	rRNA inh HTS RFP	rRNA inh HTS OD600
- COc1ccc(CN(C)C[C@@H]2Oc3ccc(NS(=O)(=O)c4ccc(OC)cc4)cc3CC(=O)N([C@H](C)CO)C[C@@H]2C)cc1
    -4	3.4	3.5	-1
- C[C@@H]1CN([C@H](C)CO)C(=O)c2cc(NS(C)(=O)=O)ccc2O[C@@H]1CN(C)C(=O)Nc1ccc2c(c1)OCO2
    2	-8.2	-0.6	-1
- C[C@H]1CN([C@@H](C)CO)C(=O)c2cc(NC(=O)Cc3ccccc3)ccc2O[C@@H]1CN(C)C(=O)NC1CCCCC1
    0	0.4	-3.7	8
- O=C(C[C@@H]1CC[C@@H]2[C@H](COC[C@@H](O)CN2Cc2ccc(Cl)cc2)O1)NCc1ccccc1Cl
    -33	2.2	-2.0	-74
- COC(=O)C[C@@H]1CC[C@@H]2[C@H](COc3ccc(NS(=O)(=O)c4cccc(F)c4)cc3C(=O)N2C)O1
    -1	-1.2	-1.3	2
- C[C@@H]1CN([C@@H](C)CO)C(=O)Cc2cc(NC(=O)CCC(F)(F)F)ccc2O[C@H]1CN(C)S(=O)(=O)c1ccc(F)cc1
    -2	-2.3	1.2	1
- COCC(=O)N[C@@H]1CC[C@H](CC(=O)N2CCCCC2)O[C@@H]1CO
    1	-3.1	-0.6	2
- Cc1noc(C)c1NC(=O)N(C)C[C@H]1Oc2ccc(NS(=O)(=O)c3ccccc3)cc2C(=O)N([C@@H](C)CO)C[C@H]1C
    4	-2.4	0.3	4
- N#Cc1ccc(-c2ccc3c(c2)[C@@H]2[C@@H](CCN2C(=O)c2ccc4c(c2)OCO4)[C@H](CO)N3)cc1
    -5	-1.0	0.5	-4
- C[C@@H]1CN([C@@H](C)CO)C(=O)c2ccccc2-c2ccccc2CO[C@H]1CN(C)C(=O)Nc1ccc(-c2ccccc2)cc1
    -1	2.9	-0.7	-1

More structures follow.
Every second line gives: rRNA inh HTS	MLL AF4-AF9 inh	rRNA inh HTS RFP	rRNA inh HTS OD600
- Cc1ccc(S(=O)(=O)N(C)C[C@H]2Oc3ccc(NC(=O)CCCCCC(=O)Nc4ccccc4N)cc3CC(=O)N([C@H](C)CO)C[C@H]2C)cc1
    4	0.0	-2.8	-1
- Cc1noc(C)c1S(=O)(=O)Nc1ccc2c(c1)CC(=O)N([C@H](C)CO)C[C@H](C)[C@@H](CN(C)Cc1ccc3c(c1)OCO3)O2
    2	2.6	2.4	-14
- C[C@@H]1CN([C@@H](C)CO)C(=O)Cc2cc(NC(=O)CCCCCC(=O)Nc3ccccc3N)ccc2O[C@@H]1CN(C)Cc1ccncc1
    -3	4.4	0.6	-5
- CC1(C(=O)Nc2cccc(C#N)c2)CCN1C(=O)Cc1ccc(-c2ccccc2)cc1 (configuration not stated)
    -5	0.4	1.9	-14
- COc1ccccc1NC(=O)N[C@@H]1C=C[C@@H](CC(=O)NCc2ccc(Cl)c(Cl)c2)O[C@H]1CO
    -6	-1.3	0.0	8
- Cc1noc(C)c1NC(=O)Nc1ccc2c(c1)C(=O)N([C@@H](C)CO)C[C@@H](C)[C@H](CN(C)S(=O)(=O)c1cn(C)cn1)OCCCC[C@H](C)O2
    -1	-0.9	-2.2	8
- COc1ccc(-c2csc(C(C)(NC(C)=O)c3ccccc3)n2)cc1 (configuration not stated)
    -1	-3.8	3.8	7
- C#CCOCCOCCOCCNc1nc(N2CCN(C(=O)[C@H](CCCCN)n3cc(CN)nn3)CC2)nc(N2CCN(C(=O)[C@H](CCC(=O)O)n3cc([C@@H](N)[C@H](C)CC)nn3)CC2)n1
    35	0.9	4.5	18
- CC1Oc2ccc(C#N)cc2N(Cc2ccccc2OC(F)(F)F)C1=O (configuration not stated)
    -6	-4.3	-7.0	-30
- O=S(=O)(NCC[C@@H]1CC[C@@H](NS(=O)(=O)c2ccccc2Cl)[C@@H](CO)O1)c1ccc(F)cc1
    -3	-1.3	-0.4	-4

Going on with the list:
Every second line gives: rRNA inh HTS	MLL AF4-AF9 inh	rRNA inh HTS RFP	rRNA inh HTS OD600
- CC(C)CC#Cc1ccc([C@H]2[C@@H](CO)N3C(=O)CN(C(=O)Cc4cccnc4)C[C@H]23)cc1
    3	0.6	-6.7	-3
- CCCC#Cc1ccc([C@H]2[C@H]3CN(S(=O)(=O)Cc4ccccc4)CCCCN3[C@H]2CO)cc1
    0	7.1	-0.6	-6
- CCN1[C@@H]2Cn3c(ccc(C4=CCCCC4)c3=O)[C@H]1[C@@H](C(=O)N1CCCCC1)[C@@H]2CO
    1	-0.8	-2.4	2
- CC(C)NC(=O)Nc1ccc2c(c1)C(=O)N([C@H](C)CO)C[C@@H](C)[C@H](CN(C)Cc1ccc(Cl)c(Cl)c1)O2
    5	5.5	5.6	-41
- CC(C)(O)C#Cc1ccc([C@@H]2[C@H](CO)N3CCCCN(S(C)(=O)=O)C[C@@H]23)cc1
    6	-2.3	-3.4	4
- O=C(NCC[C@H]1CC[C@@H](NC(=O)C2CCCCC2)[C@H](CO)O1)c1cc(Cl)cc(Cl)c1
    0	-0.7	-3.1	-1
- C[C@H](CO)N1C[C@H](C)[C@H](CN(C)C(=O)Nc2ccccc2)Oc2ccc(NC(=O)Cn3cnnn3)cc2C1=O
    7	-2.5	-0.6	5
- O=C(Cc1ccccn1)NCC[C@H]1CC[C@H](NS(=O)(=O)c2ccccc2)[C@H](CO)O1
    -1	1.7	-3.7	16
- CCOc1ccc(Br)cc1S(=O)(=O)Nc1cccc(S(=O)(=O)N2CCOCC2)c1
    4	-0.5	1.6	5
- C[C@@H]1CCCCO[C@H](CN(C)Cc2ccc(C(F)(F)F)cc2)[C@@H](C)CN([C@H](C)CO)C(=O)c2cc(NC(=O)c3ccncc3)ccc2O1
    4	1.9	1.6	0

Next part
Every second line gives: rRNA inh HTS	MLL AF4-AF9 inh	rRNA inh HTS RFP	rRNA inh HTS OD600
- C[C@@H]1CN([C@H](C)CO)C(=O)c2cccc(NC(=O)NC3CCCCC3)c2O[C@@H]1CN(C)Cc1ccc(-c2ccccc2)cc1
    -2	4.9	5.7	-6
- O=C(C[C@H]1C[C@H]2c3cc(NC(=O)c4ccc5c(c4)OCO5)ccc3O[C@H]2[C@H](CO)O1)NC1CCCCC1
    3	-0.3	0.9	6
- CN1C(=O)c2cc(NC(=O)Nc3ccccc3)ccc2OC[C@@H]2O[C@H](CC(=O)NC3CCC3)CC[C@H]21
    -2	0.7	-1.5	-4
- C[C@H](O)C#Cc1ccc2c(c1)O[C@@H](CN(C)C(=O)C1CCC1)[C@@H](C)CN([C@H](C)CO)S2(=O)=O
    0	-1.7	-1.9	4

Filtered by structure: the compounds so far containing four or more nitrogen atoms
Every second line gives: rRNA inh HTS	MLL AF4-AF9 inh	rRNA inh HTS RFP	rRNA inh HTS OD600
- C[C@@H]1CN([C@H](C)CO)C(=O)c2cc(NS(C)(=O)=O)ccc2O[C@@H]1CN(C)C(=O)Nc1ccc2c(c1)OCO2
    2	-8.2	-0.6	-1
- C[C@H]1CN([C@@H](C)CO)C(=O)c2cc(NC(=O)Cc3ccccc3)ccc2O[C@@H]1CN(C)C(=O)NC1CCCCC1
    0	0.4	-3.7	8
- Cc1noc(C)c1NC(=O)N(C)C[C@H]1Oc2ccc(NS(=O)(=O)c3ccccc3)cc2C(=O)N([C@@H](C)CO)C[C@H]1C
    4	-2.4	0.3	4
- Cc1ccc(S(=O)(=O)N(C)C[C@H]2Oc3ccc(NC(=O)CCCCCC(=O)Nc4ccccc4N)cc3CC(=O)N([C@H](C)CO)C[C@H]2C)cc1
    4	0.0	-2.8	-1
- Cc1noc(C)c1S(=O)(=O)Nc1ccc2c(c1)CC(=O)N([C@H](C)CO)C[C@H](C)[C@@H](CN(C)Cc1ccc3c(c1)OCO3)O2
    2	2.6	2.4	-14
- C[C@@H]1CN([C@@H](C)CO)C(=O)Cc2cc(NC(=O)CCCCCC(=O)Nc3ccccc3N)ccc2O[C@@H]1CN(C)Cc1ccncc1
    -3	4.4	0.6	-5
- Cc1noc(C)c1NC(=O)Nc1ccc2c(c1)C(=O)N([C@@H](C)CO)C[C@@H](C)[C@H](CN(C)S(=O)(=O)c1cn(C)cn1)OCCCC[C@H](C)O2
    -1	-0.9	-2.2	8
- C#CCOCCOCCOCCNc1nc(N2CCN(C(=O)[C@H](CCCCN)n3cc(CN)nn3)CC2)nc(N2CCN(C(=O)[C@H](CCC(=O)O)n3cc([C@@H](N)[C@H](C)CC)nn3)CC2)n1
    35	0.9	4.5	18
- CC(C)NC(=O)Nc1ccc2c(c1)C(=O)N([C@H](C)CO)C[C@@H](C)[C@H](CN(C)Cc1ccc(Cl)c(Cl)c1)O2
    5	5.5	5.6	-41
- C[C@H](CO)N1C[C@H](C)[C@H](CN(C)C(=O)Nc2ccccc2)Oc2ccc(NC(=O)Cn3cnnn3)cc2C1=O
    7	-2.5	-0.6	5
- C[C@@H]1CCCCO[C@H](CN(C)Cc2ccc(C(F)(F)F)cc2)[C@@H](C)CN([C@H](C)CO)C(=O)c2cc(NC(=O)c3ccncc3)ccc2O1
    4	1.9	1.6	0
- C[C@@H]1CN([C@H](C)CO)C(=O)c2cccc(NC(=O)NC3CCCCC3)c2O[C@@H]1CN(C)Cc1ccc(-c2ccccc2)cc1
    -2	4.9	5.7	-6
- CN1C(=O)c2cc(NC(=O)Nc3ccccc3)ccc2OC[C@@H]2O[C@H](CC(=O)NC3CCC3)CC[C@H]21
    -2	0.7	-1.5	-4
